Hsc70 ATP site = Hsc70 inhibitors, probe displacement, primary screen, biochemical, fluorescence polarization (AID 568). Hsc70 fluorescence polarization, probe displacement; higher % means a stronger effect; strong numbers were not always called active. one-dose displacement, % at 20 µM; IC50 in µM for titrated hits. 83,000 tested, under 10 active;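 active = displacement above 50% without optical interference and an IC50 on retest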;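 note: ATPase domain with a fluorescein-tagged ATP probe; 0% = vehicle and 100% = excess ADP; read after one hour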
MT1-MMP promoter = inhibitors of MT1-MMP promoter transcription, cell-based, luciferase reporter, luminescence (AID 618) | MT1-MMP promoter luciferase reporter cells, luminescence | calls from a first round at 10 µM; hits with a dose series show EC50 in µM | 87,000 compounds, 0.62% hits;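 active = over half of the reporter light lost at 10 µM or EC50 under 50 µM; inactive = the rest and hits that failed the dose series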;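 note: actives suppress MT1-MMP promoter-driven transcription so potencies describe inhibitors; HT1080 fibrosarcoma cells; overnight exposure; toxic or luciferase-blocking compounds were not removed from the actives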
WNV NS2B-NS3 inh = inhibitors of West Nile virus NS2B-NS3 protease. WNV NS2B-NS3 protease, fluorogenic substrate Ex360/Em465; hits give low values. z-score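 (tested at a level between 10 and 100 µM)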. 65,000 compounds, 0.18% hits;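 active = z-score at -3 or under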;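 note: score is relative to mean and spread of the compound wells of a plate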
Target sequence (P06935 1371-1501 limits assumed): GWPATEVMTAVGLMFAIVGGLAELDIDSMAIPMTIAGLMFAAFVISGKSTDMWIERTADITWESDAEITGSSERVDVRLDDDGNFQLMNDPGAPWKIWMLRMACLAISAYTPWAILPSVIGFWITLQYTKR
Target sequence (P06935 1502-1679 limits assumed): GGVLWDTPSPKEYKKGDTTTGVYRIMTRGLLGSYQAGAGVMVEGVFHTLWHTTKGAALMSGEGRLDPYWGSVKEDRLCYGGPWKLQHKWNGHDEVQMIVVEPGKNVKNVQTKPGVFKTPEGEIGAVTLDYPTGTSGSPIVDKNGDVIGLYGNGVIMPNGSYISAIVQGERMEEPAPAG
* marks the source's active call; other numbers are inactive results; i = inactive; / = not tested or not shown. This is a subset (hit frequency here may not be typical).

No. | Structure | Hsc70 ATP site | MT1-MMP promoter | WNV NS2B-NS3 inh
1 | COc1ccccc1N1CCN(c2nc3ccccc3nc2C(C#N)C(=O)OC(C)C)CC1 (stereo unspecified) | -7.0% | i | -0.41
2 | Cc1nn(Cc2ccccc2)c(C)c1NC(=O)CSc1nc(-c2ccccc2)nc2c1cnn2-c1ccccc1 | 4.5% | i | /
3 | O=C(CN(Cc1ccccc1C(F)(F)F)C(=O)CNC(=O)c1ccco1)NC1CCCC1 | -0.6% | i | 1.5
4 | Cc1ccc(C)c(N(C)C(=O)COc2cc(=O)n(C)c3ccccc23)c1 | -0.9% | i | 1.44
5 | CCc1[nH]nc2c1C(Cc1ccccc1)C(C#N)=C(N)O2 (stereo unspecified) | -0.8% | i | /
6 | CC(=O)NC(C)C12CC3CC(CC(C(=O)O)(C3)C1)C2 (stereo unspecified) | 1.6% | i | -0.33
7 | Cc1c(NC(=O)CSc2nnc(-c3ccco3)n2-c2ccccc2)c(=O)n(-c2ccccc2)n1C | -6.6% | i | 1.22
8 | CCc1ccc(Cn2nnc(C(=O)Nc3ccc(OC)cc3OC)c2N)cc1 | -0.9% | i | 0.38
9 | Clc1ccc(Cn2cc(/C=N/n3cnnc3)c3ccccc32)c(Cl)c1 | -5.2% | i | /
10 | O=C(NCc1cccs1)C1CCCN(S(=O)(=O)c2cccc3cccnc23)C1 (stereo unspecified) | 5.1% | i | -1.47
11 | Cc1ccc(NC(=O)CSc2nnc([C@@H]3CCCN3C(=O)OC(C)(C)C)o2)c(C)c1 | 0.4% | i | 0.12
12 | Cn1nnc2cc(NC(=O)N3CC4(C)CC3CC(C)(C)C4)ccc21 (stereo unspecified) | -3.9% | i | -0.65
13 | CCOC(=O)c1cn(CC(=O)Nc2ccccc2C(=O)OCC)nn1 | 2.2% | i | -0.85
14 | COc1ccc(S(=O)(=O)N2CCC(O)(c3ccc4c(c3)OCO4)CC2)cc1 | -4.6% | i | -1.23
15 | Cc1ccccc1-n1cnnc1SCC(=O)N1CCN(c2ccccc2)CC1 | 2.6% | i | /

Gathered by group: the entries above containing a furan ring, fused or not.
No. | Structure | Hsc70 ATP site | MT1-MMP promoter | WNV NS2B-NS3 inh
3 | O=C(CN(Cc1ccccc1C(F)(F)F)C(=O)CNC(=O)c1ccco1)NC1CCCC1 | -0.6% | i | 1.5
7 | Cc1c(NC(=O)CSc2nnc(-c3ccco3)n2-c2ccccc2)c(=O)n(-c2ccccc2)n1C | -6.6% | i | 1.22

Given with values under each structure: three of the compounds above
Results follow in this order: Hsc70 ATP site	MT1-MMP promoter	WNV NS2B-NS3 inh
(5) CCc1[nH]nc2c1C(Cc1ccccc1)C(C#N)=C(N)O2 (stereo unspecified)
  -0.8%	i	/
(6) CC(=O)NC(C)C12CC3CC(CC(C(=O)O)(C3)C1)C2 (stereo unspecified)
  1.6%	i	-0.33
(7) Cc1c(NC(=O)CSc2nnc(-c3ccco3)n2-c2ccccc2)c(=O)n(-c2ccccc2)n1C
  -6.6%	i	1.22

Next part
No. | Structure | Hsc70 ATP site | MT1-MMP promoter | WNV NS2B-NS3 inh
16 | CC(=O)OCC(=O)[C@@]1(O)CC[C@H]2[C@@H]3CCC4=CC(=O)C=C[C@]4(C)[C@H]3[C@@H](O)C[C@@]21C | 7.8% | i | 1.13
17 | CCOC(=O)CSc1nc2ccccc2c(=O)n1CC1CCCC1 | 2.3% | i | /
18 | CC(C)NS(=O)(=O)c1ccc(OCC(=O)NCc2ccc3c(c2)OCO3)c(Cl)c1 | 7.0% | i | 0.76
19 | O=C(O)CSc1nc2ccccc2[nH]1 | -9.9% | i | /
20 | COc1ccc(C(=O)COc2nc(C)cc(C)c2C#N)cc1 | -6.3% | i | /
21 | O=S(=O)(/C=C/c1ccccc1)n1cnc2ccccc21 | 2.8% | i | 0.01
22 | O=C1N(CCCCN2C(=O)C3(OCCO3)c3ccccc32)c2ccccc2C12OCCO2 | 1.7% | i | 0.75
23 | COc1ccc(N2CCN(C(=O)c3cn(C)c(=O)c4c3c3ccccc3n4C)CC2)cc1 | 2.6% | i | -3.8*
24 | Cn1c(-c2ccccc2)cnc1SCC(=O)N1CCCCC1 | -0.5% | 2.88µM* | /
25 | CN(C)CC#CCCCCCCC#CCN(C)C | -0.3% | i | /
26 | CC(=O)Nc1cc(-c2ccc(Cl)cc2)nn1-c1ccccc1 | 0.4% | i | /
27 | COc1ccc(CCn2nnnc2C(C(C)C)N2CCC(C(N)=O)CC2)cc1OC (stereo unspecified) | 1.3% | i | -1.29
28 | Nn1c(SCc2cccc(C(F)(F)F)c2)nnc1-c1ccco1 | -3.5% | i | 0.46
29 | O=C(CSc1nccn1Cc1ccccc1)Nc1nccs1 | 0.1% | i | 0.72
30 | CCOc1ccccc1-n1c(CN2CCN(C(=O)c3ccco3)CC2)nc2ccccc2c1=O | 5.1% | i | 1.1
31 | CC1=NN(/C(=N\c2nnc(C)s2)Nc2ccc(C)cc2)[C@H](c2ccc(C)cc2)S1 | 0.7% | i | /
32 | COC(=O)C1(S(=O)(=O)c2cc(Br)cc3c2N(C(C)=O)CC3)CC1 | -4.3% | i | 0.51
33 | CCCCc1ccc(-c2nc(N)n[nH]2)cc1 | -1.1% | i | 0.69
34 | O=C(CSc1nnnn1C1CCCC1)c1ccc2c(c1)OCCO2 | 5.8% | i | -0.65
35 | COC(=O)c1ccccc1NC(=O)N[C@@H](C)C(=O)OC | -2.7% | i | /
36 | CCCc1c(C(=O)OCC)[nH]c2c1C(=O)CCC2 | -0.9% | i | -0.97
37 | CCOCCOCCC(C(=O)OCC)P(=O)(c1ccccc1)c1ccccc1 (stereo unspecified) | -2.3% | i | /
38 | CCCC(=O)NC(Nc1ccc(S(=O)(=O)Nc2ncccn2)cc1)(C(=O)OCC)C(F)(F)F (stereo unspecified) | 5.7% | i | -1.04
39 | CCc1nc(N2CCCCC2C)c2oc3ccccc3c2n1 (stereo unspecified) | 1.0% | i | 0.17
40 | CC1CCN(S(=O)(=O)c2ccc(NC(=O)CN3CCN(c4ccccc4)CC3)cc2)CC1 | 2.4% | i | -0.61
41 | CCc1c(C)[nH]c2nc3ccccc3n2c1=O | 1.1% | i | /
42 | COc1ccc(Br)cc1C(=O)Nc1nnn(C)n1 | 1.1% | i | 0.09
43 | CC1Cc2ccccc2N1C(=O)C1CCN(S(=O)(=O)Cc2ccccc2)CC1 (stereo unspecified) | 2.0% | i | -1
44 | CCc1nc(SCC(=O)NCCc2ccccc2)n[nH]1 | -0.7% | i | 0.71
45 | CCOC(=O)CSc1nc2sc(C(=O)O)c(C)c2c(=O)[nH]1 | 2.1% | i | -0.89
46 | Cc1c(C(=O)Nc2ccc(F)cc2)oc2ccc(S(=O)(=O)N3CC(C)CC(C)C3)cc12 (stereo unspecified) | 1.6% | i | /
47 | COc1cccc(-c2cc(C(=O)NCCN3CCOCC3)no2)c1 | 2.0% | i | -1.3
48 | CCn1ncc2c1C(=O)NC1c3ccccc3C(=O)N21 (stereo unspecified) | 2.2% | i | 0.8
49 | Cc1c(NC(=O)c2cc(=O)[nH]c3ccccc23)c(=O)n(-c2ccccc2)n1C | 3.4% | i | /
50 | O=C(O)CC(CP(=O)(c1ccccc1)c1ccccc1)C(=O)O (stereo unspecified) | 0.8% | i | -0.9
51 | CCc1ccccc1N(CC(=O)N1CCN(c2ccccc2)CC1)S(C)(=O)=O | -3.5% | i | -1.37
52 | O=CNCC(=O)NCCc1ccc(Cl)cc1 | -1.6% | i | -1.27
53 | c1ccc(Cn2nnc3c(NCC4CCCO4)ncnc32)cc1 (stereo unspecified) | -5.6% | i | 1.35
54 | O=C(O)CCN1/C(=C/C=Nc2ccccc2)Oc2ccccc21 | -12.4% | i | -0.2
55 | O=C(Nc1ccc(F)cc1)c1nsc(Cl)c1Cl | -1.5% | i | /
56 | COC(=O)c1ccc(NC(=O)CSc2nnnn2C2CCCCC2)cc1 | -2.1% | i | /
57 | C=CCNc1nc(NCCN2CCOCC2)nc(N2CCOCC2)n1 | 1.8% | i | -1.72
58 | CCc1ccc2[nH]c(=O)c(CN(Cc3ccc4c(c3)OCO4)Cc3nnnn3C3CCCC3)cc2c1 | -6.7% | i | 1.5
59 | CCCC(=O)Nc1ccc(Oc2ccc(NC(=O)CCC)cc2)cc1 | -0.8% | i | /
60 | CCSc1nnc(NC(=O)C2CCCCC2C(=O)OCC(F)(F)C(F)F)s1 (stereo unspecified) | 1.1% | i | -0.09
61 | O=C(CN(Cc1ccccc1)S(=O)(=O)c1ccc2c(c1)OCCO2)Nc1ccc2c(c1)OCCO2 | -13.0% | i | -0.45
62 | CCCC(=O)Nc1ccc2c(c1)nc(CN1CCCCC1)n2C | 1.5% | i | -0.06
63 | c1csc(-c2nn3c(C4COc5ccccc5O4)nnc3s2)c1 (stereo unspecified) | -6.1% | i | -0.95
64 | CCOC(=O)N=S(N)(=O)c1ccccc1 (stereo unspecified) | 1.2% | i | 0.92
65 | Cn1c(NN)nc2sc3c(c2c1=O)CC(C)(C)OC3 | 6.1% | i | /
66 | Cc1cc(C)n(Cc2ccc(C(=O)O)o2)n1 | -0.1% | i | 0.71
67 | C=CCc1c(C)nc(SC(C)C)[nH]c1=O | 7.8% | i | 0.03
68 | Cc1ccc2c(c1)N(CCC(=O)NCc1ccco1)C(=O)CO2 | -2.0% | i | -0.6
69 | O=C(CCc1nc(-c2ccccc2F)no1)NCCN1CCOCC1 | 3.2% | i | -0.9
70 | Oc1ccc(Nc2nc3ccccc3nc2Nc2ccc(O)cc2)cc1 | -6.1% | i | /
71 | CC(=O)c1c(C)cc(C)c(CSc2nnc(-c3ccco3)o2)c1C | -1.7% | i | 0.88
72 | COCCNc1cc(C)nc2c3c(C)cc(C)nc3nn12 | -0.7% | i | 2.38
73 | CCc1cc(=O)oc2cc3oc(C)c(C)c3cc12 | 1.0% | i | 1.14
74 | O=C(CSc1ncccn1)N1CCN(Cc2ccccc2)CC1 | 5.3% | i | /
75 | O=C(CN1CCN(Cc2ccccc2)CC1)NC(=O)NCc1ccco1 | 2.7% | i | -2.31

New compounds follow:
No. | Structure | Hsc70 ATP site | MT1-MMP promoter | WNV NS2B-NS3 inh
76 | COC(=O)c1ccccc1NC(=O)CSc1nnc(C(CO)NC(=O)c2ccccc2Cl)n1C (stereo unspecified) | 5.4% | i | /
77 | CC1CCc2nn(CC(=O)N3CCCCCC3)cc2C1 (stereo unspecified) | -0.3% | i | -0.56
78 | c1ccc(-c2csc3nnc(SCc4ccc5c(c4)OCO5)n23)cc1 | 1.6% | i | -0.71
79 | Cc1nc(N2CCOCC2)c2cc(-c3ccccc3)sc2n1 | -4.1% | i | 0.04
80 | C=CCSc1nnc2n(-c3ccccc3OC)c(=O)c3c4c(sc3n12)CCC4 | -3.0% | i | -0.39
81 | Cc1ccc(S(=O)(=O)N(C)CC(=O)N2CCN(C(=O)c3ccco3)CC2)cc1 | 1.8% | i | 0.58
82 | COCCn1c(=O)[nH]c2cc(C(=O)NCCN3CCN(c4ccccc4)CC3)ccc2c1=O | 0.9% | i | -0.76
83 | COc1ccc(-c2csc(NC(=O)C3CCCCN3S(=O)(=O)c3ccccc3)n2)cc1 (stereo unspecified) | -7.9% | i | /
84 | O=C(c1ccc(=O)oc1)N1CCN(c2ccc(F)cc2)CC1 | -3.2% | i | 1.03
85 | CCN(CC)c1ccc(-c2nc3cnccc3n2C)cc1 | -3.1% | i | 0.01
86 | O=S(=O)(c1ccc(F)cc1)c1nc(-c2ccc(F)cc2)oc1NCCN1CCOCC1 | 6.0% | i | 0.31
87 | Cc1ccc(Cl)cc1N1CCN(Cc2nnnn2Cc2ccco2)CC1 | -3.4% | i | 1.47
88 | Nc1c(C(=O)NCc2ccco2)nnn1-c1ccccc1 | -3.9% | i | 0.38
89 | CCC(C)Sc1nc2c(c(=O)[nH]c(=O)n2C)n1Cc1ccc(Cl)cc1 (stereo unspecified) | -2.1% | i | -1.95
90 | CC(=O)c1ccc(OCCCC(=O)NCC(c2ccco2)N(C)C)cc1 (stereo unspecified) | 1.9% | i | -1.18
91 | COc1ccccc1NC(=O)CN1CCN(C2c3ccccc3-c3ccccc32)CC1 | 0.8% | i | 0.91
92 | COc1ccc(-c2cc(C(F)F)n3ncc(C(=O)N4CCN(C(=O)c5ccco5)CC4)c3n2)cc1 | 1.6% | i | 0.78
93 | COc1ccc(N=CC2=C(O)CCCC2=O)cc1 | 6.9% | i | -4.23*
94 | CCOC(=O)c1c(SC)nc(SC)c2c1CCC2 | -2.9% | i | 0.27
95 | COc1ccc(OC)c(C(=O)CSc2nc3c(c(=O)n(C)c(=O)n3C)n2C(C)C)c1 | 3.4% | i | -0.45
96 | COc1ccc(CN(CC(=O)NC2CCCC2)C(=O)CCC(=O)Nc2cc(C)on2)cc1 | -25.0% | i | /
97 | Cc1nnc(NC(=O)C2CCCO2)s1 (stereo unspecified) | -4.3% | i | -0.83
98 | COC(=O)c1c(NC(=O)CN2CCN(Cc3ccc4c(c3)OCO4)CC2)sc(C)c1C | -3.6% | i | -1.68
99 | Cc1cc(NC(=O)C(C)C)ncc1NC(=O)Cc1ccccc1 | -1.6% | i | -0.42
100 | CS(=O)(=O)NCc1ccc(C(=O)NCc2ccccc2)cc1 | 3.9% | i | -0.5
101 | COc1ccc(CCNC(=O)Cn2nnc(-c3ccc(N(C)C)cc3)n2)cc1OC | 2.7% | i | /
102 | COC(=O)CN1CCN(C(=O)c2ccc(F)cc2)c2ccccc2C1 | 0.5% | i | 0.39
103 | COc1ccccc1CC(=O)N1CCCC1 | 5.2% | i | -0.39
104 | Cn1ccnc1C(O)c1ccco1 (stereo unspecified) | 6.0% | i | 0.23
105 | CCOC(=O)CC(=O)CSc1ncc(C(=O)OCC)c(N)n1 | 8.0% | i | 0.54

High-throughput results: PubChem BioAssay, several laboratories
